Bioassay records deposited in PubChem by National Center for Advancing Translational Sciences (NCATS).
VDR inhibitor: blocks the human vitamin D receptor | P11473 | 400,000 compounds, 0.93% hits | Potency, µM, for the others: max response, negative = inhibition, usual class: inhibitors | VDR-SRC2-3 peptide fluorescence polarization, 2 h | AID 504847; active = well fitted inhibition curve with a large enough effect; inconclusive = small, poorly fitted or top-dose-only effect, or another doubt; inactive = no such curve, though single readings can be large or run the other way; also: series mostly up to about 120 µM
Target sequence (P11473 whole entry, looked up): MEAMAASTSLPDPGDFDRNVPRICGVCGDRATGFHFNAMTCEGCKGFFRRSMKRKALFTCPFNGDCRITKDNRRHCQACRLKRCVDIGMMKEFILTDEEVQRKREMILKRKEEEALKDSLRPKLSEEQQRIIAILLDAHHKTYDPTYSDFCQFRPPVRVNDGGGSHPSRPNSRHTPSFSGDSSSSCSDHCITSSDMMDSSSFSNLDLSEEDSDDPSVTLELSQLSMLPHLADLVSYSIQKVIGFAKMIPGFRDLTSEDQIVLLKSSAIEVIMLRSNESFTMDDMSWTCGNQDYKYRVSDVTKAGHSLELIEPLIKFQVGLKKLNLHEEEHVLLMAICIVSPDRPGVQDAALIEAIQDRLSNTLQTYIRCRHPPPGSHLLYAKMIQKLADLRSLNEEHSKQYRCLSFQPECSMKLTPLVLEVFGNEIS
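Reagent solutions, kept cold and dark, are dispensed first; compounds are then pinned in at 23 nl, plates briefly spun, and incubated 2 h at ambient temperature. Inhibition of VDR–SRC2-3 peptide binding is read by fluorescence polarization.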
* marks the source's active call; other numbers are inactive results; ? = inconclusive; & = joins results of further samples. % is scaled to controls: 0 for no effect and ±100 for the full control effect; potency is read from the fitted curve at half-maximal effect. Not all compounds are listed; the hit share may differ from the screen's.

canonical_smiles | VDR inhibitor
Cc1csc2nc(COC(=O)CNC(=O)c3ccc(F)cc3)cc(=O)n12 | 9%
COc1ccc(-c2cc(CCCC(=O)NCc3ccccn3)no2)cc1 | -4%
C=CS(=O)(=O)N(Cc1ccccc1Br)[C@H](CO)Cc1ccccc1 | -6%
CCc1ccc(CNc2ccc(N3CCN(C(C)=O)CC3)cc2)cc1 | 3%
COc1ccc(-c2sc3ccccc3c2/C=C/c2ccncc2)cc1 | -27%
COc1cccc(OCC(O)CNC(=O)c2oc3c(C)c(C)ccc3c2C)c1 (centres undefined) | 3%
Cc1ccccc1Nc1ncnc(N)n1 | 0%
N#CCc1ccc(OC(=O)Nc2ccccc2)cc1 | -17%
COc1cccc(CNCc2cc(OC)cc(OC)c2)c1 | -9%
CC(=O)OCC(=O)Nc1ccc(Br)c(C)c1 | -3%
CC(C)(C)NC(=O)C(c1ccccc1)N(Cc1ccco1)C(=O)c1csnn1 (centres undefined) | 8%
COc1ccc2oc(C(=O)N3CCN(S(=O)(=O)c4ccc(F)cc4)CC3)c(C)c2c1 | -12%
Cc1cc(OCC(=O)N(Cc2ccc(N(C)C)cc2)C2CCS(=O)(=O)C2)cc(C)c1Cl (centres undefined) | -11%
Cc1c(NC(=O)Nc2cccc(C(F)(F)F)c2)c(=O)n(-c2ccccc2)n1C | 2%
O=C(CN1C(=O)c2ccccc2C1=O)NN1C(=O)c2ccccc2C1=O | -4%
CC(=O)NC(Cc1cccc(F)c1)C(=O)NC1CCN(C(=O)Nc2ccc(C)cc2)CC1 (centres undefined) | 6%
CCCCCn1c(=O)[nH]c2cc(C(=O)NCc3ccccc3)ccc2c1=O | -4%
O=C(Nc1ccc2c(c1)OCCO2)C1CCN(c2cnccn2)CC1 | 11%
COc1ccc(N(CC(=O)N2CCN(c3ccc(F)cc3)CC2)S(=O)(=O)c2c(C)nn(C)c2C)cc1 | 2%
O=C(O)CC1(CC(=O)Nc2ccc3c(c2)OCCCO3)CCCCC1 | 13%
O=C1CNC(=S)N1C1CCCCCC1 | 18%
N[C@@H](Cc1cnc[nH]1)C(=O)O | -12%&8%
O=S(=O)(NCc1ccccc1)c1ccc(S(=O)(=O)NCC2CCCO2)cc1 (centres undefined) | -12%
CCOP(=O)(OCC)c1nc(-c2ccc(Br)cc2)oc1N1CCCCC1 | -3%
CCOc1cc2nc(-c3ccc(OC)c(OC)c3)nc(N3CCOCC3)c2cc1OC | 3%
Cc1ccc2c(C)c(C(=O)N3CCC(N4CCC(C(=O)NC5CC5)CC4)CC3)oc2c1 | -2%
CCOC(=O)c1c(C)c(C(=O)N2CCN(c3ccccc3)CC2)c(C)n1C | 6%
N#CC1(NC(=O)CSc2nc3ccccc3o2)CCCCC1 | -26%
O=C1CSC(=S)N1/N=C/c1ccc2c(c1)OCCO2 | -20%
CC(=O)c1ccc(OCC(=O)NCCC2=CCCCC2)cc1 | -6%

Next section.
canonical_smiles | VDR inhibitor
Cc1cccc(NC(=S)N/N=C/c2cccn2Cc2ccc(F)cc2)c1 | -3%
Cc1ccc(S(=O)(=O)Nc2ccc(-c3nc4ccc(C)cc4s3)cc2)cc1 | -16%
Cc1ccc(NC(=O)CNC(=O)c2cccc(C)c2)nc1 | -6%
O=C1NC(=O)C2(COC(c3cccc([N+](=O)[O-])c3)OC2)S1 (centres undefined) | -21%
Cc1ccc(CNC(=O)C2CCN(S(=O)(=O)c3cccs3)CC2)o1 | ?
COc1cc(C(=O)N2C[C@H]3CC[C@H]2C3)ccc1OC1CCN(C(C)=O)CC1 | -2%
CC(C)C[C@@H](CO)N1CCN(Cc2cccc(C#N)c2)CCC1=O | 1%
Cc1cccc(N2CCN(c3ccc(N4C(=O)CCCC4=O)cc3[N+](=O)[O-])CC2)c1C | 0%
O=C(NCCCN1CCOCC1)c1ccc(CNS(=O)(=O)c2ccc(Br)cc2)cc1 | 0%
C(#Cc1ccccc1)C[N+]1(CC#Cc2ccccc2)CCCC1 | 11%
COc1ccc(N=C(N)N=C(N)N)c(OC)c1 | -8%
C=CCN(CCNP(=O)(OCC)OCC)CP(=O)(OCC)OCC | -8%
CC(C)c1ccc(NC(=O)C2CCCN(S(=O)(=O)c3ccc(Br)s3)C2)cc1 (centres undefined) | -5%
CCCCN(CC)C(=O)CN(C)S(=O)(=O)c1cccc2nsnc12 | -13%
Cc1cc(O)c(C(=O)/C=C/c2ccccc2O)c(=O)o1 | ?
COCCCNC(=S)N(CCO)Cc1cc2cc3c(cc2[nH]c1=O)OCCO3 | -18%
COc1cc(C)c(S(=O)(=O)Nc2ccc(CC(=O)O)cc2)cc1C | 3%
O=C(Cc1ccc2c(c1)OCCO2)Nc1cc(Cl)ccc1N1CCOCC1 | 6%
CN1CCN(c2ccc(Cl)cc2NC(=O)CC2OC(=O)c3ccccc32)CC1 (centres undefined) | ?
CC(=O)N1CCc2cc(S(=O)(=O)NC(CC(C)C)C(=O)N3CCn4c3nc3ccccc34)ccc21 (centres undefined) | 5%
COc1cc(S(=O)(=O)Nc2ccncc2)ccc1F | -13%
O=C(COc1ncnc2sccc12)NC1CCCCC1 | -15%
Cc1ccc(OCC(=O)NCc2cccs2)cc1 | 14%
Nc1cc(Cl)ccc1N1CCCCCC1 | 8%
O=C(COc1cc2oc(=O)c3c(c2cc1Cl)CCC3)NCCCN1CCCC1=O | -3%
CN(C)C(=O)c1ccc(-c2cc(N(C)Cc3ccco3)ncn2)cc1 | ?
COc1ccccc1NC(=O)c1ccc(NC(=O)COC(=O)C2CC2C)cc1 (centres undefined) | -2%
O=C(NCC(=O)N(c1cccnc1)C(C(=O)NC1CCCCC1)c1ccccc1)c1ccco1 (centres undefined) | 0%
CC(C)NC1(C#N)CCN(Cc2ccccc2)CC1 | -2%
CC(=O)c1cccc(NC(=O)c2ccccc2-c2ccccc2C(=O)O)c1 | -27%

The list continues.
canonical_smiles | VDR inhibitor
CCC(=O)N1CCc2cc(S(=O)(=O)NCCCN(CC)Cc3ccccc3)ccc21 | 2%
S=C(Nc1ccccc1)N1CCC(Cc2ccccc2)CC1 | -21%
CCC(CC)C(=O)Nc1cc(C(=O)OC)cc(C(=O)OC)c1 | -13%
Cc1noc(C)c1CSCC(=O)NCCN1C(=O)S/C(=C\c2ccccc2F)C1=O | -23%
CC(C)c1ccc(-c2csc(NC(=O)c3cccs3)c2C(=O)O)cc1 | -19%
O=C(Nc1c2c(nc3ccccc13)CCCC2)c1cccc([N+](=O)[O-])c1 | -18%
Cc1cccc(C)c1NC(=O)CNC(=O)C(C)NC(C)c1ccccc1Br (centres undefined) | -5%
Nc1nc2c(-c3ccc(Br)cc3)nnn2c2ccccc12 | 4%
COc1ccc(CCNC(=O)CC2Nc3ccccc3NC2=O)cc1 (centres undefined) | 12%
CCC1(C)Cc2c(sc3c2c(=O)n(C)c2nnc(SCCc4ccccc4)n32)CO1 (centres undefined) | 11%
Cc1cc(-c2ccc(C)c(S(=O)(=O)NC3CCCCC3)c2)on1 | 3%
N#CCSc1ncnc2c1cnn2CCO | -8%
CC(NC(=O)COC(=O)/C=C/c1ccc(Cl)cc1)c1ccccc1 (centres undefined) | 9%
O=C(CSc1n[nH]c(-c2cc(Cl)ccc2Cl)n1)NCCN1C(=O)CSC1=O | 13%
Cc1ccccc1NC(=S)NNC(=O)c1cccnc1 | 1%
O=c1[nH][nH]c(-c2ccccc2)c1C=Nc1ccccc1 | 4%
Cc1cc(C)c2oc(C(=O)Nc3c(C(=O)c4ccccc4)oc4ccccc34)cc(=O)c2c1 | 1%
COc1ccc(CN2CCN(C(=O)c3cc(OC)c(OC)c(OC)c3)CC2)cc1OC | 10%
CC(=O)C(Sc1ncnc2sc3c(c12)CCCC3)C(C)=O | 5%
Brc1cccc2sc(N3CCCC3)nc12 | 12%
CCOC(=O)Cn1c(=O)oc2cc(S(=O)(=O)N3CCN(c4cccc(C)c4)C(C)C3)ccc21 (centres undefined) | 4%
O=c1cc(CSc2nnc(COc3ccccc3Cl)o2)nc2sccn12 | -3%
CCOC(=O)C1=C(C)N(C)C(=O)NC1c1ccc(C)s1 (centres undefined) | -10%
CCOP(=O)(c1ccccc1)C(O)c1ccccc1 (centres undefined) | -6%
CC(=O)Nc1ccc(SCC(Cc2ccccc2)N2CCN(CC(C)C)CCC2=O)cc1 (centres undefined) | -25%
S=c1[nH]nc(-c2cccnc2)n1-c1ccccc1 | -11%
CC(=O)c1ccc(NC(=O)COC(=O)Cc2ccsc2)cc1 | -8%
COc1ccc(/C=C2\SC(N3CCCCC3)=NC2=O)cc1 | -4%
Cc1ccc(OCC(=O)Nc2ccc3c(c2)C(=O)NC3=O)cc1 | 19%
O=C(CSc1nc(-c2ccc(F)cc2)cc(C(F)(F)F)n1)NCc1ccccc1 | -13%

Some of these compounds in order of length of the SMILES, largest number first.
canonical_smiles | VDR inhibitor
CCC1(C)Cc2c(sc3c2c(=O)n(C)c2nnc(SCCc4ccccc4)n32)CO1 (centres undefined) | 11%
O=C(CSc1nc(-c2ccc(F)cc2)cc(C(F)(F)F)n1)NCc1ccccc1 | -13%
O=c1cc(CSc2nnc(COc3ccccc3Cl)o2)nc2sccn12 | -3%
COc1ccc(/C=C2\SC(N3CCCCC3)=NC2=O)cc1 | -4%
S=c1[nH]nc(-c2cccnc2)n1-c1ccccc1 | -11%
N#CCSc1ncnc2c1cnn2CCO | -8%

(continued)
canonical_smiles | VDR inhibitor
CN(CC(=O)NCCc1ccc(S(N)(=O)=O)cc1)Cc1c(F)cccc1Cl | ?
O=C(COC(=O)c1ccccc1)Nc1ccc2[nH]c(=O)[nH]c2c1 | 3%
Cc1cc(C)nc(NS(=O)(=O)c2ccc(NC(=S)NC(=O)c3cccnc3)cc2)n1 | -7%
Cc1cccc(-n2c(SCC(=O)N3CCC(C(=O)O)CC3)nc3ccccc3c2=O)c1C | 23%
O=C(CN1CCN(CC(=O)c2ccccc2)CC1)c1ccccc1 | -7%
NC(=O)C1CCN(c2csc3ccc(F)cc3c2=O)CC1 | 16%
Cc1ccc(-c2cc(C(=O)N/N=C/c3ccco3)n[nH]2)s1 | -6%
COc1cccc(-c2cc(C(F)(F)F)n3ncc(S(=O)(=O)c4ccccc4)c3n2)c1 | 3%
CCOC(=O)C1=C(C)NC2=C(C(=O)CC(C)(C)C2)C1c1ccsc1 (centres undefined) | 1%
CC(NC(=O)CSc1nc(C2CC2)n(-c2ccccc2)n1)c1ccco1 (centres undefined) | -1%
CC1(C)OC2CC3C4CCC5=CC(=O)C=C[C@@]5(C)[C@]4(F)C(O)C[C@@]3(C)[C@]2(C(=O)CO)O1 (some centres undefined) | 3%
COc1cc(C(=O)N/N=C2\CCS(=O)(=O)c3ccc(F)cc32)cc(OC)c1OC | -2%
Cc1cccc(-c2nc3c4ccccc4nc(NCc4ccccc4Cl)n3n2)c1 | -2%
COc1ccc(Nc2nc(N)nc(CSC(=S)N3CCCCC3C)n2)cc1 (centres undefined) | 2%
O=C(c1[nH]ncc1-c1ccccc1)C1CO1 (centres undefined) | 1%
COc1ccccc1C(=O)N(CN1CCCC1=O)c1cccc(Cl)c1 | 1%
CCn1c(C)[n+](CC(O)COCC2CC=CCC2)c2ccccc21 (centres undefined) | 18%
CC(C)(C)C(=O)N1CCN(c2ccc([N+](=O)[O-])c(-n3nc(-c4ccccc4)c4ccccc4c3=O)c2)CC1 | 9%
Cc1sc2c(c1C)c(=O)n(-c1ccc(Cl)cc1)c(=O)n2Cc1c(F)cccc1Cl | -7%
CCn1c(C(=O)N2CCC(Cc3ccccc3)CC2)cc2sccc21 | -7%
CCOc1ccc(N2CC(C(=O)N3CCCc4ccccc43)CC2=O)cc1 (centres undefined) | -3%
Cc1ccc(NS(=O)(=O)c2cc(C(=O)Nc3cccnc3)ccc2C)cc1 | 7%
O=C(O)C1CC1C(=O)Nc1nc2c(Cl)cccc2s1 (centres undefined) | 6%
COc1ccc(C(=S)N2CCN(c3cccc(Cl)c3)CC2)cc1 | -9%
COc1ccc(C(=S)Nc2ccc(N(C)C)cc2)cc1 | 1%
O=C(Nc1ccccc1N1CCOCC1)c1cccc2c(Br)cccc12 | -14%
CCCCCC(=O)N1CC2(CC(c3cccc(NC(=O)CC(c4ccccc4)c4ccccc4)c3)=NO2)C[C@@H]1C(N)=O (some centres undefined) | 7%
O=c1c(=O)n(-c2ccc(F)c(F)c2)ccn1Cc1ccc(F)cc1Cl | 2%
COc1ccc(NC(=O)c2ccc3c(c2)CCN3S(=O)(=O)c2ccccc2)c(OC)c1 | 1%
COc1ccc2oc(C)c(C(N)=O)c2c1 | 9%

(list continues)
canonical_smiles | VDR inhibitor
CCOC(=O)C1=C(N)N2C(=O)C(C)SC2=C(C(=O)OC)C1c1ccccc1OC (centres undefined) | 0%
CCOC(=O)c1ccccc1NC(=O)NCc1cccn1Cc1ccc(F)cc1 | 12%
COc1ccccc1-c1cc(C(=O)NCCc2ccccc2)no1 | -14%&-20%
C=CCNC(=S)NC(CC(=O)OC)c1ccc2c(c1)OCO2 (centres undefined) | 7%
Cc1c(C(=O)C(=O)N2CCCc3ccccc32)c2ccccc2n1C | -15%

3 compounds out of the list above, arranged by the value under VDR inhibitor, ascending:
canonical_smiles | VDR inhibitor
N#CC1(NC(=O)CSc2nc3ccccc3o2)CCCCC1 | -26%
CCC(CC)C(=O)Nc1cc(C(=O)OC)cc(C(=O)OC)c1 | -13%
Cc1ccccc1Nc1ncnc(N)n1 | 0%
